Ecoli rRNA inh: inhibitors of bacterial rRNA selective over humanized ribosomes; GFP signal change (wild-type ribosome), % (no concentration beside the values); E. coli WT GFP vs humanized-ribosome RFP mutants, fluorescence, 24 h; hits give low values; DMSO median 0, no signal -100; AID 720706; hit rate 1.6% among 350,000;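 active = significant combined selectivity score with lowered wild-type GFP, culture density cut under 30%, mutant RFP and density less affected; inactive = any of these conditions unmet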; note: one replicate is shown; some compounds called inactive have numbers as strong as hits
HNF4A DNA FP: change in binding of human HNF4 alpha to DNA. P41235. HNF4a-FITC DNA binding, fluorescence polarization, 1 h. activity change, % at 10 µM. hit rate 0.3% among 360,000; in the data active = activity change above about 30%, passing the limit was not always enough;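 note: controls were the assay level and a saturating level of protein; the project sought stronger binding though the title names inhibitors; some compounds called inactive have numbers as strong as hits; positive values seem to mean higher polarization but the record does not say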
Target sequence (P41235 whole entry, looked up): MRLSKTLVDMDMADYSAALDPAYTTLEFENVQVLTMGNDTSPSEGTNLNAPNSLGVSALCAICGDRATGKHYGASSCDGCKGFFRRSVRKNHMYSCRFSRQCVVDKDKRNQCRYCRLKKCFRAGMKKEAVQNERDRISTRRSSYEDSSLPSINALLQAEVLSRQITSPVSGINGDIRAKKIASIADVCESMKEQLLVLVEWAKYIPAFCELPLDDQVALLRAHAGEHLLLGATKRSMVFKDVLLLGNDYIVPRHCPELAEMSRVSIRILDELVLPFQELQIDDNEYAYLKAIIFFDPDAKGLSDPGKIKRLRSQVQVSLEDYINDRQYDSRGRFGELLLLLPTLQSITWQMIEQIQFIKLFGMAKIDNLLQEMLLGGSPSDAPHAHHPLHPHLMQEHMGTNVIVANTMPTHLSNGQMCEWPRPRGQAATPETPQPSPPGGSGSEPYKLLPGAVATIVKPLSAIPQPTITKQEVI
UCH37 DUB inh: blocks the human deubiquitinase UCH37; hit rate 0.33% among 330,000; AID 588478; inhibition, % (no concentration beside the values); purified proteasome/UCH37, Ub-AMC cleavage fluorescence; Q9Y5K5;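 active = mean of two replicates above 20%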;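 note: 0% = compound-free wells with enzyme and 100% = wells lacking proteasome; stock transfer was 100 nL into about 20 µL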
Target sequence (Q9Y5K5 whole entry, looked up): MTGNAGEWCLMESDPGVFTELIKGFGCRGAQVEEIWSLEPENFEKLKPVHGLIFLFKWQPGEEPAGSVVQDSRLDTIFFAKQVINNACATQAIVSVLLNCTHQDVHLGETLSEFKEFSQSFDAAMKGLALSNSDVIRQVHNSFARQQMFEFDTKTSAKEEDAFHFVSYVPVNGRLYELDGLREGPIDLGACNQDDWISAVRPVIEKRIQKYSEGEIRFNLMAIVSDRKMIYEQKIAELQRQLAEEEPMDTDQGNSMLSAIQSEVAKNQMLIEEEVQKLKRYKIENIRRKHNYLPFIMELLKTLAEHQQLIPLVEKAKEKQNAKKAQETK
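Reagent: Ub-AMC substrate; assay system: Proteasome-associated human UCH37 deubiquitinase; controls: no-proteasome and no-compound wells; read-out: % inhibition of Ub-AMC cleavage fluorescence; timing: 30 min preincubation with enzyme, 25 min cleavage at room temperature; signal: AMC fluorescence from Ub-AMC cleavage, excitation 355 nm, emission 460 nm; buffer or medium: Tris-HCl pH 7.4 plus ovalbumin, ATP-MgCl2, DTT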
ALR H2O2 inh: blocks human ALR sulfhydryl oxidase activity; hit rate 3.8% among 290,000; AID 485317; inhibition, % (test concentration not listed); P55789; purified ALR, DTT oxidation, H2O2 HRP-luminol luminescence;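 active = mean and each replicate at 75% or more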;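 note: stock transfer was 7.5 nL into about 7.5 µL; 0% = neutral wells and 100% = wells with inactivated enzyme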
Ecoli growth: blocks Escherichia coli growth; OD600, 23 h; hits give low values; OD600 absorbance (test concentration not listed); hit rate 0.21% among 330,000;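 active = OD600 absorbance below the run mean of sample wells minus 3.6 SD, in any replicate, cut at about 0.56 in these data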;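 note: stock transfer was 300 nL into about 60 µL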
Beta2AR agonist: human beta-2 adrenergic receptor agonism by FAP. hit rate 0.43% among 340,000. response, % (concentration not given with the values). P07550. AID 504454. Am2.2-beta2AR cells, FAP receptor internalization, flow cytometry; reference of the scale not given here;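 active = response above a set limit, near 3 SD of response in nonfluorescent compounds, cut at about 42% in these data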;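 note: stock transfer was 100 nL into about 11 µL; a reference agonist was the positive control; negative values mostly stem from fluorescent compounds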
FGF22 binding: FGF22 (human) thermal shift binding; calls only at 9.99 µM; Q9HCT0; recombinant FGF22 thermal shift, SYPRO orange fluorescence; percent of sucrose octasulfate shift, DMSO zero; hit rate 1.5% among 340,000;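 active = melting point raised past a set limit in the mean and every replicate; three in four hits are not shown here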
Target sequence (Q9HCT0 whole entry, looked up): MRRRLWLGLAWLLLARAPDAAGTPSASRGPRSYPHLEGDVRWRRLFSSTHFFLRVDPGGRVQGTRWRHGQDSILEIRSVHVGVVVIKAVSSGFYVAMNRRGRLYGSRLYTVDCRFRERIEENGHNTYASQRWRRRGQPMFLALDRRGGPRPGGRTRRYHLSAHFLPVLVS
Ecoli rRNA inh OD600: also measured in Ecoli rRNA inh; calls as there; OD600 change, %; measured here: OD600 growth;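 optical density of the mix in the first replicate; 0 = DMSO median and -100 = no signal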
Ecoli rRNA inh RFP: second read-out of Ecoli rRNA inh, no call of its own (marks repeat the call); RFP signal change, %; measured here: RFP humanized mutant strains;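 first replicate; 0 = DMSO median and -100 = no signal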
* hit, by the source's call; i = inactive; / = not tested or not shown; + = active, no number; & = joins results of further samples. The list is partial; the hit share may differ from the screen's.

Values in the order: Ecoli rRNA inh, Ecoli rRNA inh OD600, Ecoli rRNA inh RFP, HNF4A DNA FP, UCH37 DUB inh, ALR H2O2 inh, Ecoli growth, Beta2AR agonist, FGF22 binding
CCOc1ccccc1NC(=O)COC(=O)Cc1ccc(-c2ccccc2)cc1
 : -4, 6, 2.4, 2.8, 3.9, -2, 0.73, -4, i
COC(=O)[C@H](Cc1ccccc1)NC(=O)N(C)Cc1ccccc1
 : 1, 6, -1.1, 4.4, 4.2, -1, 0.71, 2, i
Cc1c(C(=O)N2CCCC2)c(S(=O)(=O)Nc2cccc(Br)c2)c(C)n1C
 : 0, 1, -3.0, 0.0, 1.6, -1, 0.64, 3, i
Cc1ccc(C(=O)N2CCCC(N3CCN(c4ccccc4F)CC3)C2)s1 (stereo not drawn)
 : 0, 0, 0.2, -4.5, 3.0, 0, 0.69, -1, i
O=C(NC1=NCCS1)c1cccc(S(=O)(=O)N2CCc3ccccc32)c1
 : -25, -38, -9.5, -3.3, 1.9, -9, 0.64, -2, i
O=C(Cc1cccs1)NCc1cccc(CNC(=O)Cc2cccs2)c1
 : 13, 8, 0.4, 1.9, -2.1, -2, 0.7, -6, i
O=C(COC(=O)c1ccc(Cl)c(S(=O)(=O)N2CCCC2)c1)NCc1ccccc1
 : /, /, /, 1.6, -0.1, /, 0.69, -4, i
CSc1c[n+]2c(n1C)CCC2
 : /, /, /, 7.8, 1.5, -2, 0.71, -6, /
CSc1ccc(-c2nc(CSCC(=O)NC3CC3)c(C)o2)cc1
 : -4, -5, -0.4, -5.0, -2.6, 98*, 0.68, 0, i
CCN1CCCC1CNC(=O)C(=O)NC(C)C (stereo not drawn)
 : 10, 13, -1.5, -0.3, 1.0, -63, 0.68, 6, /
Cc1ccc(N2CCN(c3ccc(C)cc3)C2c2ccccn2)cc1
 : -16, -9, 1.0, -1.5, 1.8, 87*, 0.7, -1, i
COc1ccccc1N(C)S(=O)(=O)c1ccc(C(=O)N2CCCC(C(F)(F)F)C2)cc1 (stereo not drawn)
 : /, /, /, 5.1, 1.2, -3, 0.64, -1, /
Cc1cccc(NC(=O)c2cccnc2)c1
 : /, /, /, 3.5, -0.5, 0, 0.69, -4, /
COc1ccc(OCCN2CCN(C3CC(=O)N(CCC(C)C)C3=O)CC2)cc1 (stereo not drawn)
 : /, /, /, 4.8, 0.8, -2, 0.7, -1, /
Cc1ccc2nc(-c3ccc(NC(=O)c4cccnc4)cc3)oc2c1
 : 10, 8, 2.0, 4.0, -14, -2, 0.66, 18, i
COc1ccc(-c2cc(-c3ccc(C)cc3)n[nH]2)c(O)c1
 : -56, -78, -16, 0.9, 2.6, 3, 0.62, 3, i
COc1cccc(C(=O)Nc2ccc(C(F)(F)F)n(C)c2=O)c1
 : 1, 3, 3.1, 2.7, -0.7, -4, 0.71, -16, i
CC1CCC2(CC1)NC(=O)N(CC(=O)NC1CCCCC1C)C2=O (stereo not drawn)
 : 12, 8, 4.7, 2.2, 0.6, 0, 0.65, -2, i
Cc1ccc(NS(=O)(=O)c2ccc(NC(=O)[C@@H]3CCCC[C@@H]3C(=O)O)cc2)c(C)c1
 : /, /, /, -1.0, 2.7, /, 0.71, 2, /
NC(=S)N=Nc1c(O)[nH]c2ccccc12
 : /, /, /, -4.4, 11, /, 0.65, -2, /
O=C(CNCC1CCCCC1)Nc1ccc(OC(F)(F)F)cc1
 : 16, -4, 8.7, -2.0, 3.3, -3, 0.57, 6, i
COc1ccc(N2CC(C(=O)Nc3ccc4c(c3)OCCO4)CC2=O)cc1 (stereo not drawn)
 : -2, 9, -0.3, 0.2, 4.7, -6, 0.67, -4, i
CC/C=C\C/C=C\C/C=C\CCCCCCCC(=O)O
 : /, /, /, -21, 2.5, 20, /, 6, i
Cc1ccc(S(=O)(=O)NCN2C(=O)c3ccccc3C2=O)cc1
 : 13, 14, 2.3, -1.9, /, /, /, /, i
CCOC1OC(=O)C(Cl)=C1Nc1ccccc1C (stereo not drawn)
 : /, /, /, -0.8, 2.4, -13, 0.61, -1, /
O=C(Nc1ccccc1Cl)NC1CCCCCCC1
 : 5, -23, 3.8, 4.0, -2.0, 3, 0.72, -4, i
CC(=O)N1c2ccc(S(=O)(=O)N(C)CC(=O)NC3CCCCC3C)cc2CC1C (stereo not drawn)
 : /, /, /, -1.6, 4.0, -3, 0.68, -15, /
Cc1ccc(Br)cc1S(=O)(=O)N1CCN(c2ccccc2)CC1
 : /, /, /, -1.5, -2.0, 0, 0.74, -4, /
CC(=O)Nc1cccc(Oc2nc(C)cc(C)c2C#N)c1
 : -5, -6, -3.9, 2.6, 3.2, -6, 0.76, -8, i
Cc1ccc(CC(=O)N2CCOCC2)cc1
 : /, /, /, -5.0, 3.7, 4, 0.7, -6, /
CCCNC(=O)Cn1cnc([N+](=O)[O-])n1
 : 16, 6, -1.2, 0.5, -0.9, -17, 0.71, -50, i
COc1ccc(/C=N/NC(=O)c2cccs2)c2ccccc12
 : -5, -8, -2.0, 2.7, /, 24, /, 4, i
O=C(Nc1ccc2c(c1)OCCO2)C(c1cc2ccccc2o1)N1CCN(c2ccc(F)cc2)CC1 (stereo not drawn)
 : 5, 15, 2.9, 1.9, /, /, /, /, i
Oc1ccc(N2CCN(CC(O)c3ccccc3)CC2)cc1 (stereo not drawn)
 : 0, 6, -1.6, 4.7, 5.2, 99*, 0.69, -1, i
O=S1(=O)CC(N2CCN(c3ncccn3)CC2)CN1Cc1ccc(F)cc1 (stereo not drawn)
 : 2, 2, 3.5, -65, /, /, /, /, i
Clc1cccc(Cc2c(-c3ccccc3)nc3ccc(Br)cn23)c1
 : -17, -26, -8.4, -0.3, /, /, /, /, i
Cc1ccc(Oc2ccc(S(=O)(=O)N3CCOCC3)cc2C(N)=O)cc1C
 : -23*, 9.7*, -3.2*, -1.2, 1.4, 0, 0.67, 3, i
COc1cccc(NC(=S)NC(C)c2ccc(OC)c(OC)c2)c1 (stereo not drawn)
 : 15, -3, 0.7, 4.6, 4.9, /, 0.72, 6, i
O=S(=O)(Nc1ccccn1)c1cccc(S(=O)(=O)c2ccc(Br)cc2)c1
 : -10, -13, -7.4, 0.9, 1.4, -2, 0.7, 3, i
Cc1cc(C)nc(Sc2ccc3nnc(C(F)(F)C(F)(F)C(F)(F)F)n3n2)n1
 : /, /, /, 4.8, 5.4, /, 0.67, -8, /
CCn1cc(CNC(=O)c2ccc(OC3CCN(Cc4ccccn4)CC3)cc2)cn1
 : 14, 6, 2.5, -0.6, /, -8, /, -2, i
O=C(COC(=O)c1n[nH]c2ccccc12)Nc1ccc(Cl)cc1[N+](=O)[O-]
 : 20, 21, 2.0, 2.4, 4.3, -1, 0.65, -8, i
COc1cc(C(c2c(C)[nH][nH]c2=O)c2c(C)[nH][nH]c2=O)ccc1OC(C)C
 : -2, -5, 3.5, -1.0, 5.2, -161, 0.7, 6, i
COc1ccc(OC)c(NC(=O)CCOc2cccc(C)c2)c1
 : 1, -32, -2.0, 1.6, 2.2, /, 0.65, 0, i
Cc1nc2ccc(NC(=O)c3cc(S(=O)(=O)N(C)c4ccccc4)ccc3Cl)cc2s1
 : /, /, /, 14, 5.5, -49, 0.74, -5, /
COc1ccc(-c2cc(C(=O)Nc3nc4ccccc4s3)c3ccccc3n2)cc1OC
 : -2, 0, 0.6, 0.7, -133, 0, 0.72, 5, i
O=C(Nc1cc(C(F)(F)F)ccc1N1CCCC1)c1cccnc1
 : /, /, /, 2.7, 2.5, 26, 0.61, -4, /
CCN(CC)C(=S)SCC(=O)Nc1ncc2c(n1)CCCC2=O
 : 13, 1, 4.3, 2.2, 6.0, /, 0.69, -1, i
O=C(Nc1nnc(CSCc2ccc(F)cc2)s1)c1ccc([N+](=O)[O-])cc1
 : /, /, /, -2.8, 3.0, 13, 0.71, 9, /
CC1=C(C(=O)N(C)C)CC(CC(=O)NCc2cccc3ccccc23)C(=O)N1Cc1ccc(C(C)(C)C)cc1 (stereo not drawn)
 : -6, -40, 0.7, -1.6, /, /, /, /, i
CCN(CC)S(=O)(=O)c1ccc2c(c1)c(=O)c(C(=O)NCc1cccs1)cn2C
 : /, /, /, -4.3, 2.2, 0, 0.73, 4, /
CCCCn1c(=O)nc2n(-c3ccccc3)c3ccccc3cc-2c1=O
 : /, /, /, 0.6, -416, -1, 0.71, -2, /
Cc1ccc(C(=O)Nc2nccc(-c3cccs3)n2)cc1
 : /, /, /, -2.1, -0.7, 0, 0.64, -15, /
COCCN(CCOC)S(=O)(=O)c1ccc(C(=O)NC2CCN(Cc3ccccc3)CC2)cc1
 : /, /, /, 0.3, 0.6, -13, 0.76, -5, /
Cc1cc(SCC(=O)OCC(=O)N(CCC#N)c2ccccc2)nc2ccccc12
 : -6, -10, 4.2, 0.2, 6.6, -5, 0.71, 4, i
COc1ccc(/C=C2/C(=O)N=C3SCCN32)cc1
 : /, /, /, -1.9, 4.2, 6, /, -15, /
COCCN(C(=O)c1csnn1)C(C(=O)NC1CCCCC1)c1ccc(C)cc1 (stereo not drawn)
 : /, /, /, -0.6, 2.1, -13, 0.66, -2, i
CC(Sc1nnc(-c2cccnc2)o1)C(=O)NC1CCCC1 (stereo not drawn)
 : 9, 8, -0.6, 2.1, 4.5, 0, 0.66, 0, i
CC(C)(C)NS(=O)(=O)c1ccc(CCC(=O)N2CCCCC2)cc1
 : /, /, /, -0.4, 1.3, -8, 0.74, 1, /
CCc1ccc(CN(C)C(=O)c2cc(=O)c3ccccc3o2)cc1
 : -8, -17, 2.2, -0.4, 2.5, 2, 0.69, -1, i

Next section:
Values in the order: Ecoli rRNA inh, Ecoli rRNA inh OD600, Ecoli rRNA inh RFP, HNF4A DNA FP, UCH37 DUB inh, ALR H2O2 inh, Ecoli growth, Beta2AR agonist, FGF22 binding
C[C@H](CO)N1C[C@H](C)[C@@H](CN(C)C(=O)CC2CC2)Oc2cc(Br)ccc2S1(=O)=O
 : -3&-1, -2&-2, -0.1&-4.3, -5.7, /, /, /, /, i
COc1cccc(-c2nc(-c3ccc(Br)o3)no2)c1
 : 20, 17, -4.7, -0.3, 1.1, -7, 0.65, 9, i
Cc1ccc2c(C)c(C(=O)NCC(C)(C)N3CCOCC3)oc2c1C
 : 0, 2, -1.6, -1.0, 3.0, -4, 0.66, -6, i
CCOc1ccc(NC(=O)c2ccccc2NC(=O)CN2CCCCCC2)cc1
 : 5, 8, 0.8, 1.7, 4.3, /, 0.63, 1, i
Cc1cc(OCC(=O)Nc2nnc(C3CC3)s2)ccc1[N+](=O)[O-]
 : -4, -3, -0.8, -1.3, 2.8, /, 0.65, 8, i
O=C(c1cc2sccc2n1Cc1ccc(F)cc1)N1CCN(c2nc3ccccc3s2)CC1
 : /, /, /, 1.0, -1.8, 2, 0.77, 3, /
Cc1cc(C([O-])=C(C(=S)Nc2ccc(F)cc2)[n+]2ccccc2)c(C)n1-c1ccc(F)cc1
 : 0, 9, 3.8, 1.1, 8.2, /, 0.7, 2, i
COc1ccc(NC(=O)Nc2ccc3c(c2)C(=O)N([C@H](C)CO)C[C@H](C)[C@@H](CN(C)S(=O)(=O)c2cccs2)O3)cc1
 : -9&-3, -7&4, 0.9&7.6, 2.4, /, -6, /, -2, i
COC(=O)CN1C(=S)N(C)C(=O)C1CC(=O)Nc1ccccc1 (stereo not drawn)
 : 17, 11, 3.8, 0.6, 3.3, 7, 0.69, 5, i
C=CCC[C@H](Cc1ccc(F)cc1)C(=O)OC[C@@H](NC(=O)[C@@H](CC=C)CC(=O)N[C@@H](CO)Cc1ccccc1)C(C)(C)C
 : 12, 4, 8.2, -1.8, 2.2, -3, /, 4, +
Nc1c(C(=O)NCc2ccccc2)c2nc3ccccc3nc2n1-c1ccc2c(c1)OCO2
 : /, /, /, 5.7, -116, 0, 0.74, 8, /

Screening results: PubChem BioAssay, several laboratories
